VACV E9 pol inh: inhibitors of vaccinia virus processive DNA synthesis (E9 polymerase) | normalized absorbance, % (no concentration beside the values) | 0.94% of 46,000 active | AID 493162 | in vitro processive DNA synthesis, absorbance read-out; stronger effect = lower value; some inactives read as strong as hits;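 active means replicate mean up to 90% and picked by the depositor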;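 further: 100% = median of the test wells of a plate; 100 nL library stock went into each well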
An asterisk follows results filed as active.

SMILES | VACV E9 pol inh
Cc1c(C)c(C)c(S(=O)(=O)NCCCN(C)C)c(C)c1C | 94.6
CSc1nc2sc3c(c2c(=O)[nH]1)CC(C)(C)OC3 | 100.3
CCCN(CCC)S(=O)(=O)c1ccc(C(=O)N2CC3CCC(CC3)C2)cc1 | 104.0
O=C(C(Sc1ccccc1)c1ccccc1)N1CCCc2ccccc21 (stereo unspecified) | 98.1
CC(C)N1C(=O)/C(=C/c2ccc(Br)cc2)SC1=S | 92.0
Cc1ccc2c(c1Br)/C(=N/N1C(=O)c3ccccc3C1=O)C(=O)N2 | 97.9
O=C(C1CCCN1S(=O)(=O)c1cccc2cccnc12)N1CC=C(c2ccccc2)CC1 (stereo unspecified) | 100.3
C[C@@H]1O[C@@H](O[C@H]2C[C@@H](O)[C@]3(CO)C4C(CC[C@]3(O)C2)[C@@]2(O)CC[C@H](C3=CC(=O)OC3)[C@@]2(C)C[C@H]4O)[C@H](O)[C@H](O)[C@H]1O (stereo partly specified) | 100.5
CCc1nc2sc(C)c(C)c2c(=O)n1N | 95.9
Cc1ccc2c(Cl)c(C(=O)N(Cc3cccs3)C3CCS(=O)(=O)C3)sc2c1 (stereo unspecified) | 100.0
Fc1ccc(C2CC(c3ccc(Cl)cc3)=Nc3nc(-c4ccccc4)cn32)cc1 (stereo unspecified) | 93.3
O=C(CSc1ncn[nH]1)NC1CCCc2ccccc21 (stereo unspecified) | 99.0
CC(C)CC(C(=O)O)N1C(=O)C2CC=CCC2C1=O (stereo unspecified) | 103.2
O=C(O)CC(c1ccccc1Br)N1Cc2ccccc2C1=O (stereo unspecified) | 108.9
CN(C)c1ccc(C2OCCO2)cc1 | 100.6
O=C(O)CCCC(=O)Nc1cccc2ccccc12 | 100.6
CC(=O)n1c2ccccc2c2nc(N)sc21 | 64.2*
Cc1c(C(=O)NCc2ccc(N3CCN(C)CC3)cc2)cnn1-c1ccc(Cl)cc1 | 100.2
Nc1sc(-c2ccccc2)c(Cc2ccccc2)c1C(=O)O | 90.2*
O=C(COC(=O)c1cccs1)NC1CCCC1 | 102.3
COc1ccc2nc(NC(=O)c3ccc(Br)cc3)sc2c1 | 100.0
CC(c1ccccc1)n1c(CCCO)nc2ccccc21 (stereo unspecified) | 100.1
COc1ccc(C2CC(=O)N(CC(N)=O)c3ccccc3S2)cc1OC (stereo unspecified) | 98.7
COc1ccc(CCNC(=O)CSc2ncnc3c2nnn3Cc2ccccc2)cc1OC | 100.3
Cc1ccc2nc(C3CCCCC3)oc2c1 | 99.8
Cc1[nH]nc2c1C1(CCN(C(=O)c3ccccc3)CC1)C(C#N)=C(N)O2 | 105.7
C=CCn1c(O)c(C2=c3cc(Br)ccc3=NC2=O)c2ccccc21 | 99.9
CCc1nn(C(CC)C(=O)NC2CCCC2)c(=O)c2cc3oc(C)cc3n12 (stereo unspecified) | 101.8
O=C1NC(=S)N(c2ccccc2)C(=O)/C1=C/C=C/c1ccco1 | 52.9*
S=c1oc2ccccc2n1Cn1c(=S)oc2ccccc21 | 99.6
COc1ccc(C2C(C#N)=C(C)NC(C)=C2C(=O)Nc2ccccc2)cc1 (stereo unspecified) | 102.9
CCOc1ccc(NC(=O)CC2Oc3ccccc3NC2=O)cc1 (stereo unspecified) | 109.6
O=C(c1cccc(N2C(=O)c3ccccc3C2=O)c1)N1CCCCC1 | 100.2
NNC(=O)c1nnn(-c2nonc2N)c1CNc1ccccc1 | 95.9
COc1ccc(NC(=O)C23CCC(C)(C(=O)O2)C3(C)C)cc1 (stereo unspecified) | 99.5
CN(C)c1ccc(NC(=O)CC2SC(N)=NC2=O)cc1 (stereo unspecified) | 113.0
COc1ccc(Sc2ccccc2COC(C)=O)c(C(=O)O)c1 | 101.3
Cc1ccc(NC(=O)C2CCN(S(=O)(=O)c3c(C)nn(C)c3C)CC2)c(Cl)c1 | 102.0
COc1cc2c3c(c1OC)-c1cc(O)ccc1CC3NCC2 (stereo unspecified) | 97.0
CC(C)n1c(C(F)(F)F)nc2cc(C(=O)N3CCOCC3)ccc21 | 100.9
CCN(CC)C(=O)C1=CC(c2ccc(F)cc2)=NS(=O)(=O)N1C | 104.6
Cc1ccc(-c2nnc(SCC(=O)N3CC(C)CC(C)C3)o2)cc1 (stereo unspecified) | 90.6
Cc1cc(NC(=O)Cc2cccc3ccccc23)no1 | 89.6
CCn1c(C(=O)O)c(CNCc2cccc(Cl)c2)c2ccc(C)cc21 | 96.2
CCOC(=O)c1nccnc1N(C(=O)c1ccc(C)cc1)C(=O)c1ccc(C)cc1 | 100.4
COc1ccc(Cc2nnc(N)o2)cc1OC | 98.4
c1ccc(-c2ccc3c(n2)CCc2ccccc2-3)cc1 | 102.4
CC(C)C1=CC2=C(CC(C)(C)CC2=O)OC1N(C)C (stereo unspecified) | 91.7
CC(C)(C)C(=O)Cn1c(=O)n(CC2CCC(C(=O)NCc3ccccc3)CC2)c(=O)c2ccccc21 (stereo unspecified) | 104.3
CC(C)(C)C(=O)COC(=O)Cn1nnc(N2CCCC2)n1 | 95.4
O=C(NCc1ccccc1)N1CCN(C(c2ccc(F)cc2)c2ccc(F)cc2)CC1 | 101.4
CCN(CC(O)c1cccc(O)c1)C(=O)C12CC3CC(CC(C3)C1)C2 (stereo unspecified) | 67.3
CSc1nc2ccccc2c(=O)[nH]1 | 94.8
NC(=O)c1ccc[n+](CC(=O)c2ccccc2)c1 | 99.3
NC(=O)c1ccc(C(F)(F)F)cc1 | 99.6
CCOC(=O)C1CCN(C(=O)C2c3ccccc3C(=O)N3CCc4ccccc4C23)CC1 (stereo unspecified) | 97.3
O=C(O)CC(CC(=O)N1CCN(C(=O)c2ccco2)CC1)c1ccccc1 (stereo unspecified) | 96.3
CCc1ccc(C2NC(=O)NC3=C2C(=O)CC(C)(C)C3)cc1 (stereo unspecified) | 98.6
COc1ccc(C2CC(C3(C)CCCCC3)=NO2)cc1 (stereo unspecified) | 93.7
Cn1cc(CN(Cc2ccccc2)C(=O)Nc2ccccc2)c2ccccc21 | 98.7

More results follow.
SMILES | VACV E9 pol inh
Cc1sc(N)c(C(N)=O)c1C | 101.0
CCOc1cccc(C2C(C(=O)OC)=CN(CC)C=C2C(=O)OC)c1 | 101.1
O=C1c2ccccc2-c2c(NCCc3ccccc3)c(=O)[nH]c3cccc1c23 | 91.2
O=C(Nc1ccccc1)OCC12COC(c3ccccc3)N1C(c1ccccc1)OC2 (stereo unspecified) | 99.7
COc1nnc(-c2ccc(N3CCCCC3)c(NC(C)=O)c2)c2ccccc12 | 97.0
O=C(NCCNc1ccc2ccccc2c1)c1ccc2nc3ccc(Cl)cc3c(=O)n2c1 | 101.6
CCOC(=O)Cn1c(=O)oc2cc(S(=O)(=O)Nc3cccc(CC)c3)ccc21 | 90.7
O=C(Nc1ncn[nH]1)c1ccccc1O | 93.9
CN1CCCC(OC(=O)C2CCCCC2)C1 (stereo unspecified) | 103.2
O=C(Nc1ncn[nH]1)C1c2ccccc2Oc2ccccc21 | 101.4
Cc1ccc(-c2nn(-c3ccc(C)cc3)c3c2cnc2c(F)cccc23)cc1 | 104.2
COc1ccc(/C=C2/SC(=S)N(C(C)C(=O)O)C2=O)cc1OC (stereo unspecified) | 94.1
O=C(OCCN1CCOCC1)c1ccc(O)cc1 | 100.2
COc1ccc(C(=O)Nc2nc3ccc4ccccc4c3s2)cc1 | 101.7
O=C(N1CCOCC1)N1CCN(c2ccccc2F)CC1 | 100.3

An excerpt from above in order of count of non-hydrogen atoms, rising:
SMILES | VACV E9 pol inh
Cc1sc(N)c(C(N)=O)c1C | 101.0
CSc1nc2ccccc2c(=O)[nH]1 | 94.8
O=C(Nc1ncn[nH]1)c1ccccc1O | 93.9
CN1CCCC(OC(=O)C2CCCCC2)C1 (stereo unspecified) | 103.2
O=C(OCCN1CCOCC1)c1ccc(O)cc1 | 100.2
COc1ccc(C2CC(C3(C)CCCCC3)=NO2)cc1 (stereo unspecified) | 93.7
O=C(N1CCOCC1)N1CCN(c2ccccc2F)CC1 | 100.3
CCc1ccc(C2NC(=O)NC3=C2C(=O)CC(C)(C)C3)cc1 (stereo unspecified) | 98.6
COc1ccc(/C=C2/SC(=S)N(C(C)C(=O)O)C2=O)cc1OC (stereo unspecified) | 94.1
COc1ccc(C(=O)Nc2nc3ccc4ccccc4c3s2)cc1 | 101.7
CCOc1cccc(C2C(C(=O)OC)=CN(CC)C=C2C(=O)OC)c1 | 101.1
O=C(O)CC(CC(=O)N1CCN(C(=O)c2ccco2)CC1)c1ccccc1 (stereo unspecified) | 96.3
O=C1c2ccccc2-c2c(NCCc3ccccc3)c(=O)[nH]c3cccc1c23 | 91.2
O=C(Nc1ccccc1)OCC12COC(c3ccccc3)N1C(c1ccccc1)OC2 (stereo unspecified) | 99.7
O=C(NCCNc1ccc2ccccc2c1)c1ccc2nc3ccc(Cl)cc3c(=O)n2c1 | 101.6

The list continues.
SMILES | VACV E9 pol inh
CCOc1ccc(-c2cnc(N)s2)cc1 | 96.0
Cc1ccc(S(=O)(=O)C(CC(=O)c2ccco2)c2ccc(Cl)cc2)cc1 (stereo unspecified) | 107.3
COC(CNC(=O)c1oc2ccc3c(c2c1C)C=CC(C)(C)O3)OC | 96.8
Cc1ccc2c(cnn2C(=O)CCCC(=O)N2CCN(c3cccc(Cl)c3)CC2)c1 | 87.1
CCCc1nc2sc3c(Cl)ncnc3c2c2c1CCCC2 | 99.9
O=S(=O)(Cc1ccccc1)N1CCN(CCO)CC1 | 100.0
CC(C)(C)OC(=O)N1CCNC(=O)C1 | 98.2
COc1nnc(-c2ccc(C)c(S(=O)(=O)N(C)C)c2)c2ccccc12 | 100.0
Cc1cccc(C)c1OCc1nc2c3cnn(C)c3ncn2n1 | 101.7
COc1cccc(NC(=S)N=S(C)(=O)c2ccccc2)c1 (stereo unspecified) | 96.2
CCC(O)C#CCN1CCN(C)CC1 (stereo unspecified) | 99.1
Cc1ccc(NC(=O)c2ccc3c(c2)CCO3)cc1 | 86.0
CC(=O)Nc1cc2ccccc2cc1NC(C)=O | 98.5
O=C(CC1OC(=O)c2ccccc21)c1ccc(Cl)cc1 (stereo unspecified) | 114.3
CC(C)n1cnc2cc(NCc3ccccc3O)ccc21 | 100.2
Cc1ccc(C)c(S(=O)(=O)NCCCn2ccnc2)c1 | 99.2
CC(C)C(=O)Nc1sc2c(c1C#N)CCC2 | 101.5
O=C(NC1CC1)c1ccc(/C=C2/Oc3ccccc3N(Cc3ccccc3F)C2=O)cc1 | 105.5
Cn1c(=NC(=O)CCOc2ccccc2)sc2cc(Br)ccc21 | 100.0
COc1ccc2nc3oc(C(=O)N4CCN(c5cccc(C(F)(F)F)c5)CC4)cc3cc2c1 | 84.5
CCO/C=C1\C(=O)N(c2ccccc2)C(=O)c2ccccc21 | 103.7
CC(C)(C)c1csc(NC(=O)C2=COCCO2)n1 | 108.5
O=C(CSc1ncccn1)c1ccc(C2CCCCC2)cc1 | 103.8
CCOc1ccccc1NC(=O)CCCN1C(=O)/C(=C\c2ccco2)SC1=S | 93.9
CSC(=NC#N)/N=c1/nc(SC)n(C)n1C | 96.8
CC(C)NS(=O)(=O)c1ccc(NC(=O)c2ccccn2)cc1 | 99.2
C=CCNc1nc2c(C)cccn2c(=O)c1/C=C1\SC(=S)NC1=O | 100.1
Cc1ccc(C)c(N=Cc2ccc(C#N)cc2)c1 | 101.2
Cc1ccc(-c2cc(C(F)(F)F)n3nc(C(=O)N4CCN(c5ccccc5)CC4)cc3n2)cc1 | 99.9
Cc1cccc(N(C)S(=O)(=O)c2cccc3nsnc23)c1 | 98.9

Quoted at random: two records from the list.
SMILES | VACV E9 pol inh
CC(C)C(=O)Nc1sc2c(c1C#N)CCC2 | 101.5
Cc1cccc(N(C)S(=O)(=O)c2cccc3nsnc23)c1 | 98.9

Exported in markdown: entries from further up
| canonical_smiles | VACV E9 pol inh |
| --- | --- |
| CC(C)C(=O)Nc1sc2c(c1C#N)CCC2 | 101.5 |
| O=C(NC1CC1)c1ccc(/C=C2/Oc3ccccc3N(Cc3ccccc3F)C2=O)cc1 | 105.5 |

Remaining list, next part:
SMILES | VACV E9 pol inh
CC(=O)Nc1nccc(-c2cc(-c3cccc(C(F)(F)F)c3)no2)n1 | 100.8
CCC(Cc1ccccc1)NC(=O)c1c[nH]c2ccc(S(=O)(=O)N3CCC(C)CC3)cc2c1=O (stereo unspecified) | 101.0
CCc1cc(=O)oc2c(C)c3c(cc12)CN(Cc1ccccc1)CO3 | 107.5
CCn1c(-c2nc3ccccc3n2CC)nc2ccccc21 | 100.0
COc1ccc(-n2cnc3nc(C)c(C(=O)/C=C/N(C)C)c(-c4ccccc4)c32)cc1 | 100.0
Cc1c(Cc2ccccc2)c(=O)oc2cc3oc4c(c3cc12)CCCC4 | 95.8
O=C1CS(=O)(=O)CN1c1ccc(C(F)(F)F)cc1 | 118.0
C=CCn1c(COc2ccccc2OC)nc2ccccc21 | 100.2
COC(=O)c1sc(-c2ccccc2)cc1NC(=O)C1CCCCC1 | 100.6
Cc1c(OCC(F)(F)F)ccnc1CS(=O)c1nc2ccccc2[nH]1 (stereo unspecified) | 99.5
O=C(N(Cc1ccccc1)c1ccccn1)C12CC3CC(CC(C3)C1)C2 | 99.8
CCOC(=O)C1=C(C)NC(C(=O)NCCCN2CC(C)CC(C)C2)CS1 (stereo unspecified) | 94.9
O=C(Cc1nc2ccccc2[nH]1)c1ccccc1 | 101.3
CCc1ccc(NC(=O)C2CCN(C(=O)c3ccccc3C)CC2)cc1 | 100.4
O=C(COC(=O)c1ccc(O)cc1O)c1ccccc1 | 100.3
CCC(C(=O)O)N1C(=O)/C(=C\C(C)=C\c2ccccc2)SC1=S (stereo unspecified) | 94.1
COC(=O)CNC(c1ccccc1)c1cc(Cl)ccc1NC(=O)c1ccc(OC)cc1 (stereo unspecified) | 89.6
Clc1ccc(N2CCN(C3=Cc4ccccc4C3)CC2)cc1 | 99.1
CCOc1ccc(N2C(=O)/C(=C/c3ccccc3)N(C)C2=S)cc1 | 100.4
O=C1CCC(C(=O)Nc2cc(F)cc(F)c2)=NN1 | 105.3
O=C(Nc1cccs1)Nc1cc(C(F)(F)F)ccc1N1CCCC1 | 104.0
CN(C)CCSc1nc2ccccc2s1 | 88.8
COC(=O)C1=C(C)Oc2oc(C)cc(=O)c2C1c1cccnc1 (stereo unspecified) | 101.5
NC(=O)CSc1nc(N)cc(N)n1 | 99.8

These rows are one share of the data; the hit share may differ from the screen's.
